Source: PubChem
RGS16-Gao – modulators of RGS16 binding to Galphao, primary screen, biochemical, human proteins, multiplexed bead flow cytometry; Regulator of G-protein signaling 16 (Homo sapiens) + Guanine nucleotide-binding protein …; bead-based flow cytometry RGS16-Galphao binding, fluorescence; actives lie on both sides; binding response (% of control), % at 10 µM; 220,000 tested, 0.38% active; AID 1441, 2008;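 active = below 25% or above 175%, edge rows of some plates excepted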;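 note: Galphao activated by GDP with aluminum fluoride before binding; 100% = wells without compound and 0% = beads without RGS; some results beyond the cut were filed as inactive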
Target sequence (O15492 whole entry, looked up): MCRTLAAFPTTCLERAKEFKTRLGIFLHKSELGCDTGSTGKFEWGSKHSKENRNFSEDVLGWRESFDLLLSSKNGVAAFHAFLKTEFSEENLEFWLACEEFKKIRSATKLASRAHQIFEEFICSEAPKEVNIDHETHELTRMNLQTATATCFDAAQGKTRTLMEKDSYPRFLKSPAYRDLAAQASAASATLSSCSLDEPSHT
Target sequence (P09471 whole entry, looked up): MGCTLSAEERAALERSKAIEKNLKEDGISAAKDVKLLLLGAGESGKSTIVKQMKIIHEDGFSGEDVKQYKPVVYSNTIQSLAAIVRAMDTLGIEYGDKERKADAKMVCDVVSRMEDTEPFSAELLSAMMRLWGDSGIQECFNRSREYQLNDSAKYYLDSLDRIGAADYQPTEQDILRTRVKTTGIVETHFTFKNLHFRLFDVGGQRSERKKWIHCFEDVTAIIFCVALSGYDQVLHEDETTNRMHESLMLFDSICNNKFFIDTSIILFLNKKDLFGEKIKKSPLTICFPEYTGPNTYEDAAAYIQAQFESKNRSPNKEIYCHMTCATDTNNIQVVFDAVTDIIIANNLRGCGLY
INS promoter inh – inhibitors of insulin promoter-driven GFP, primary screen, imaging, TRM-6 cells (human fetal islet line), eGFP reporter, cell count | reporter expression induced with tamoxifen | inhibition, % at 2 µM | 130,000 tested, 0.9% active | AID 1273, 2008;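 active = inhibition above the mean plus 3 SD, with well images judged a real hit on visual review, cut at about 60% in these data, passing the limit was not always enough; inconclusive = inhibition over the cutoff but images rejected on review; inactive = inhibition not above the cutoff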
GALR2 ag – GALR2 receptor agonists, primary screen, cell-based; Galanin receptor type 2 (Homo sapiens), O43603; GALR2-expressing cells, agonist activation read-out; activation, %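 (tested at 5 µM)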; 140,000 tested, 0.48% active; AID 803, 2007;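 active = above mean plus 3 SD of all compounds, about 5% in these data, not always enough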;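 note: 0% = vehicle buffer wells and 100% = reference agonist at full effect; tested in CHO reporter cells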
Target sequence (O43603 whole entry, looked up): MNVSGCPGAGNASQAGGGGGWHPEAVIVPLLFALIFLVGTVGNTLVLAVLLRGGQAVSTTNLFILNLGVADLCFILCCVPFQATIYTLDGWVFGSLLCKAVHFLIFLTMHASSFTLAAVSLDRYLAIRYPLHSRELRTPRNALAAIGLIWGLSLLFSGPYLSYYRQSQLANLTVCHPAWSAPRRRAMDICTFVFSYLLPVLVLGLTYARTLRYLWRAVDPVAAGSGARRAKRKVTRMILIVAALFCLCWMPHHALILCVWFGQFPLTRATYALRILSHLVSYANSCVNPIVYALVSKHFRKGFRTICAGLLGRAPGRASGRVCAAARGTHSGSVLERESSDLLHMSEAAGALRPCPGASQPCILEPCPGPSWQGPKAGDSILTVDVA
HSV augment – enhancers of HSV replication in host cells, fold increase, host cell viability; HSV replication augmentation in cells; maximum fold increase; 220,000 tested, 0.005% active;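 active = peak rise of 1.5-fold or more in the series; inconclusive = self-fluorescent or not available for retest; tested in PC3 cells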;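 note: first round at 10 µM; read as green reporter fluorescence; hits show the peak of a series up to 25 µM; 1 = signal of infected wells without compound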
PKD1 inh – inhibitors of human PKD1 kinase, biochemical, fluorescence polarization; Serine/threonine-protein kinase D1 (Homo sapiens), Q15139; PKD1 kinase fluorescence polarization assay; inhibition, %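 (about 10 µM by stock and volumes)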; 200,000 tested, 0.056% active;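 active = inhibition of 50% or more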;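 note: controls were vehicle for no effect and a reference inhibitor for full effect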
INS promoter inh cell count – further read-out of INS promoter inh, marked with its call; normalized cell count, %; measured here: cell count, toxicity; reference of the scale not given here;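 cells exposed to compound for 48 h; stained nuclei by imaging scaled within each plate; lower means fewer cells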
HSV augment primary fold – second read-out of HSV augment, no call of its own (marks repeat the call); fold increase; compound at 10 µM; measured here: primary screen fold increase 10 uM; tested in PC3 cells;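 GFP signal in the first replicate; 1 = infected wells without compound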
* hit, by the source's call; i = inactive; ? = inconclusive; . = no result given.

item	mol	RGS16-Gao	INS promoter inh	INS promoter inh cell count	GALR2 ag	HSV augment	HSV augment primary fold	PKD1 inh
1	CC(=O)NN1C(=O)c2ccc(Oc3cccc([N+](=O)[O-])c3)cc2C1=O	103	-2	115	-0.9	i	0.87	-12
2	COc1ccc(NS(=O)(=O)c2cc(N/C(=N\S(=O)(=O)c3ccccc3)c3ccc(F)cc3)ccc2Cl)cc1	117	-76	57	-1.1	i	0.64	-7
3	COc1ccc(/C=C2\SC(=O)N=C2N)cc1OC	111	41	139	1.0	i	0.93	-2
4	CC1(C(=O)CSc2ncn[nH]2)CCC(=O)O1 (configuration not stated)	109	8	131	-2.9	i	0.79	8
5	O=C(O)CCCC(=O)N1CCC(C(O)(c2ccccc2)c2ccccc2)CC1	107	.	.	.	i	1	-2
6	O=C(OCCN1C(=O)c2cccc3c(N4CCOCC4)ccc(c23)C1=O)c1cc(Cl)cc(Cl)c1	133	-204	46	-0.1	?	.	3
7	COC(=O)CSc1nc2ccc(NC(=O)CSc3nnnn3Cc3ccccc3)cc2s1	90	-18	83	-2.8	i	0.73	5
8	CCCCNC(=O)C(CC)Sc1nc2sc(C(=O)OC)c(C)c2c(=O)n1N (configuration not stated)	102	-25	143	0.6	i	0.83	-9
9	CCCc1nc(NCc2ccccc2)c(C#N)c2c1CCCC2	106	-41	97	-0.5	i	0.97	-1
10	COc1ccc(Nc2oc(-c3ccc(OC)cc3)nc2C#N)cc1	101	.	.	.	i	1.2	.
11	CCOC(=O)c1c(C)[nH]c(C(=O)COC(=O)c2ccc(F)c(S(=O)(=O)N3CCOCC3)c2)c1C	106	32	113	-0.8	i	0.87	-3
12	COc1ccc(C(=O)COC(=O)CNC(=O)c2ccc(OC)cc2)cc1	103	.	.	.	i	0.85	7
13	CCOC(=O)N1CCC(NC(=O)CCC(=O)N2CCOc3ccc(C)cc32)CC1	93	.	.	-2.3	i	1.1	16
14	Cn1c(=O)cc(OCCCC(=O)NCCN2CCN(c3ccccc3F)CC2)c2ccccc21	130	.	.	-0.8	i	0.82	1
15	Cc1ccc(NS(=O)(=O)c2cccc(C(=O)NN3CCOCC3)c2)cc1	97	.	.	.	i	0.98	-6

One compound at a time (already shown). Order of screens: RGS16-Gao | INS promoter inh | INS promoter inh cell count | GALR2 ag | HSV augment | HSV augment primary fold | PKD1 inh
Results for Cc1ccc(NS(=O)(=O)c2cccc(C(=O)NN3CCOCC3)c2)cc1 = 97 | . | . | . | i | 0.98 | -6
Results for Cn1c(=O)cc(OCCCC(=O)NCCN2CCN(c3ccccc3F)CC2)c2ccccc21 = 130 | . | . | -0.8 | i | 0.82 | 1

Later entries
item	mol	RGS16-Gao	INS promoter inh	INS promoter inh cell count	GALR2 ag	HSV augment	HSV augment primary fold	PKD1 inh
16	COc1ccccc1NC(=O)Cc1noc(CN(C)Cc2cccs2)n1	101	-36	165	0.3	i	0.95	-15
17	CN(C)S(=O)(=O)c1ccc(N=Cc2c(C(F)(F)F)[nH]n(C)c2=O)cc1	101	.	.	.	i	0.82	-4
18	CC(=O)Nc1ccc(S(=O)(=O)n2nc(C)cc2C)cc1	104	-49	106	-2.0	i	0.99	2
19	COc1ccc(NC(=S)NCC(O)c2ccccc2)c(OC)c1 (configuration not stated)	100	-12	53	-0.1	i	1	17
20	COc1cccc(C2=NOC(C(=O)NCc3ccccn3)C2)c1 (configuration not stated)	104	.	.	0.4	i	1.1	-8
21	CCC(C)N(C(=O)COC(=O)CNC(=O)c1ccccc1F)C1CCS(=O)(=O)C1 (configuration not stated)	104	.	.	.	i	1	-1
22	COC(=O)CN1C(=O)N/C(=C/c2cc(OC)c(OC)cc2C)C1=O	108	.	.	.	i	0.89	-2
23	O=[N+]([O-])c1cc(-c2ccn[nH]2)ccc1Cl	102	.	.	.	i	0.82	-5
24	CCN1C(=O)S/C(=C\c2ccc(N3CCOCC3)cc2C)C1=O	103	.	.	-2.1	i	1.2	4
25	Cc1ccc(NCc2cccnc2)cc1	102	-12	124	-2.5	i	0.97	2
26	C/C(CC(=O)Nc1ccc(C)c(Cl)c1)=N\NC(=O)Cc1cccs1	103	.	.	.	i	0.97	.
27	Cc1ccc(C(=O)NC(=S)Nc2cc(C(F)(F)F)ccc2Cl)cc1	69	-23	95	-1.1	i	0.97	4
28	Cc1ccc(S(=O)(=O)N2CCCN(S(=O)(=O)c3ccc(C)c(C)c3)CC2)cc1C	87	.	.	-0.1	.	.	-1
29	COc1ccccc1NC(=O)CC(NCc1ccccc1)C(=O)O (configuration not stated)	103	-11	75	0.3	.	.	3
30	Cc1nn(Cc2ccc(Cl)cc2)c(C)c1NC(=O)C(c1ccccc1)c1ccccc1	35	46	68	-0.5	i	0.98	-3

Another view of some results above.
Values run as follows: RGS16-Gao | INS promoter inh | INS promoter inh cell count | GALR2 ag | HSV augment | HSV augment primary fold | PKD1 inh
#9 CCCc1nc(NCc2ccccc2)c(C#N)c2c1CCCC2
    106 | -41 | 97 | -0.5 | i | 0.97 | -1
#10 COc1ccc(Nc2oc(-c3ccc(OC)cc3)nc2C#N)cc1
    101 | . | . | . | i | 1.2 | .
#11 CCOC(=O)c1c(C)[nH]c(C(=O)COC(=O)c2ccc(F)c(S(=O)(=O)N3CCOCC3)c2)c1C
    106 | 32 | 113 | -0.8 | i | 0.87 | -3
#12 COc1ccc(C(=O)COC(=O)CNC(=O)c2ccc(OC)cc2)cc1
    103 | . | . | . | i | 0.85 | 7
#13 CCOC(=O)N1CCC(NC(=O)CCC(=O)N2CCOc3ccc(C)cc32)CC1
    93 | . | . | -2.3 | i | 1.1 | 16

(continued)
item	mol	RGS16-Gao	INS promoter inh	INS promoter inh cell count	GALR2 ag	HSV augment	HSV augment primary fold	PKD1 inh
31	O=C(C/C=N\OCc1ccc([N+](=O)[O-])cc1)Nc1ccccc1	103	-52	100	.	i	0.99	-6
32	COCCCNC(=O)CN(Cc1ccc(Cl)cc1)S(C)(=O)=O	95	-19	126	-1.6	i	1	1
33	COc1ccc(OC)c(S(=O)(=O)Nc2cc(OC)c(Cl)cc2OC)c1	100	23	128	-2.6	.	.	-1
34	CCOc1ccc(-n2c(Cc3cc(=O)[nH]c(=O)[nH]3)nnc2SCC(=O)Nc2nnc(C)s2)cc1	100	-5	80	.	i	1.1	1
35	COC(=O)c1cccc(N(C(=O)CNC(=O)c2ccco2)C(C(=O)NC2CCCC2)c2ccco2)c1 (configuration not stated)	26	21	62	-0.9	i	1	-4
36	CCOc1ccc(-c2ccc(SCC(=O)NCC3CCCO3)nn2)cc1 (configuration not stated)	102	35	125	.	i	0.92	2
37	Cc1ccc(S(=O)(=O)N2CCCCC2)cc1NC(=O)CSc1nnc(N)s1	105	50	117	.	i	1.1	2
38	O=[N+]([O-])c1ccc2c(c1)[nH]c(=S)n2-c1ccccc1	67	.	.	.	i	0.91	-3
39	Cc1ccc2nc(N3CCN(C(=O)c4cccs4)CC3)c(C#N)cc2c1	101	-17	70	-1.1	i	1	-3
40	CC(=O)c1cccc(NS(=O)(=O)c2ccc(N/C=C/C(=O)c3ccc(F)cc3)cc2)c1	103	-222	141	0.2	i	1.1	-6
41	C=CCOCCN1C(=O)C2C3C=CC(C2C1=O)C1C2C(=O)N(CCOCC=C)C(=O)C2C31 (configuration not stated)	98	.	.	.	i	0.95	-2
42	CN(C)S(=O)(=O)Oc1ccccc1C(=O)Nc1ccc(F)cc1F	99	-24	110	.	i	1	0
43	O=C(Nc1ccccc1NC(=O)C1CCCO1)c1ccco1 (configuration not stated)	104	-36	111	.	i	0.93	1
44	COc1cc(NC(=O)COc2ccc(-n3cnnn3)cc2)c(OC)cc1Cl	96	39	53	0.0	i	0.97	-4
45	COc1cccc(C(=O)/C=C/Nc2ccc(S(=O)(=O)Nc3ncccn3)cc2)c1	61	6	78	1.0	i	0.95	3

(next part)
item	mol	RGS16-Gao	INS promoter inh	INS promoter inh cell count	GALR2 ag	HSV augment	HSV augment primary fold	PKD1 inh
46	Cc1ccc(C(=O)NC(=S)N2CC(C)OC(C)C2)cc1[N+](=O)[O-] (configuration not stated)	103	7	118	-2.5	.	.	-6
47	Cc1ccc(S(=O)(=O)c2c(C)nn(C(C)(C)C)c2OC(=O)c2cccs2)cc1	100	-38	149	-2.9	i	0.87	8
48	CC(NC(=O)C1CC12CCC2)c1ccccc1 (configuration not stated)	95	.	.	-1.9	i	1	-9
49	COC(=O)c1cc(N=Nc2c(C)[nH]c3ccccc23)cc(C(=O)OC)c1	111	.	.	.	i	0.7	.
50	COc1ccc2oc(-c3cccc(NC(=O)CSc4ccc(Cl)cc4)c3)nc2c1	106	.	.	-0.1	i	0.86	-11
51	O=[N+]([O-])c1ccc(O)c(/C=N/Nc2ccccn2)c1	73	.	.	6.2*	i	0.74	2
52	CCOC(=O)Cc1c(C)nc2c(-c3ccc(Cl)cc3)c(C)nn2c1C	106	.	.	.	i	0.92	-3
53	C[C@@H](C(=O)N1CCNCC1)n1cc(CCCN=C(N)N)nn1	103	.	.	.	i	1.1	4
54	CCCCOC(=O)CSc1nnc(N)s1	105	-18	104	-0.6	i	0.99	-13
55	CN(C)S(=O)(=O)c1ccc(NC(=O)N2CCOCC2)cc1	100	.	.	.	i	0.91	-4
56	CC1=CCC[C@@H]2[C@@](C)(CC/C(C)=C/C(=O)O)[C@H](C)CC[C@@]12C	94	14	119	-0.4	i	1	-8
57	COc1cc(C2=NOC(C(=O)NCc3ccco3)C2)cc(OC)c1OC (configuration not stated)	102	6	107	-3.2	i	0.65	112*
58	COc1ccc(NS(=O)(=O)c2ccc(NC(=S)NC(=O)c3cccc(F)c3)cc2)nn1	101	6	97	0.3	i	0.98	-4
59	Cc1nn(-c2ccccc2)c2sc(C(=O)N(CC(=O)NC(C)(C)C)Cc3ccco3)cc12	95	.	.	-0.1	i	0.71	-10
60	COc1cccc(Oc2cn[nH]c2-c2ccc(OC)cc2O)c1	107	0	143	-2.7	i	0.65	-17

Taken from above:
`COc1ccc(NS(=O)(=O)c2ccc(NC(=S)NC(=O)c3cccc(F)c3)cc2)nn1` in RGS16-Gao is entered as 101
`Cc1ccc(C(=O)NC(=S)N2CC(C)OC(C)C2)cc1[N+](=O)[O-]` (configuration not stated) in GALR2 ag is entered as -2.5
`CCOC(=O)Cc1c(C)nc2c(-c3ccc(Cl)cc3)c(C)nn2c1C` in HSV augment primary fold is entered as 0.92
`Cc1nn(-c2ccccc2)c2sc(C(=O)N(CC(=O)NC(C)(C)C)Cc3ccco3)cc12` in HSV augment primary fold is entered as 0.71
`Cc1ccc(S(=O)(=O)c2c(C)nn(C(C)(C)C)c2OC(=O)c2cccs2)cc1` in PKD1 inh is entered as 8

Marked active in GALR2 ag, of those listed so far:
| no. | smiles | RGS16-Gao | GALR2 ag | HSV augment primary fold | PKD1 inh |
| --- | --- | --- | --- | --- | --- |
| 51 | O=[N+]([O-])c1ccc(O)c(/C=N/Nc2ccccn2)c1 | 73 | 6.2* | 0.74 | 2 |

Continuation:
item	mol	RGS16-Gao	INS promoter inh	INS promoter inh cell count	GALR2 ag	HSV augment	HSV augment primary fold	PKD1 inh
61	CCc1ccccc1NCC(=O)Nc1ccccc1C(=O)OC	104	.	.	0.7	i	1	10
62	O=C(O)CSc1nnnn1-c1ccc2c(c1)OCCO2	103	16	148	-2.8	i	0.99	-3
63	Cc1cc(C)c(C)c(S(=O)(=O)N2CCNCC2)c1C	101	.	.	.	i	1	3
64	Cc1cc(C)cc(N(CC(=O)N/N=C/c2ccncc2)S(=O)(=O)c2ccccc2)c1	99	7	80	0.0	i	1	-13
65	N#CCC(=O)Nc1ccc(C(F)(F)F)cc1N1CCOCC1	99	.	.	.	i	1.1	2
66	COc1ccc(-n2cccc2/C=C/[N+](=O)[O-])cc1	91	3	94	0.2	i	0.62	0
